Source: PubChem
CBX7 inh – CBX7 inhibition, primary AlphaScreen; AlphaScreen His6-CBX7 / biotin-H3K27me3 peptide binding; hits give low values; normalised signal (fraction of DMSO) (no concentration beside the values); O95931; 1.1% of 66,000 active; in the data active means normalised signal below about 0.5;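 further: 100 nL library stock added to about 20 µL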
Target sequence (O95931 whole entry, looked up): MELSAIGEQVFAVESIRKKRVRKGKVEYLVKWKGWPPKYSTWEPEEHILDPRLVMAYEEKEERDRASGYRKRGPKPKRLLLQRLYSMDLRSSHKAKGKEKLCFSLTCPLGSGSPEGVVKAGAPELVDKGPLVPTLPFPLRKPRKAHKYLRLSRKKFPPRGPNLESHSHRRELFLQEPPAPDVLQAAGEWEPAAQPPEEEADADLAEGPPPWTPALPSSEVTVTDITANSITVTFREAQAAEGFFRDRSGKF
CBX7 inh z-score – recorded beside CBX7 inh, whose call it bears; z-score; measured here: z-score of CBX7 signal; some inactives read as strong as hits; reference of the scale not given here;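 same signal on another scale; lower means less binding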
The depositor's hits bear a star. Some of the compounds tested (hit frequency here may not be typical).

#1 CCCCCC(C)C(C)c1cc(OC)c2c(c1)OC(C)(C)C1=C2CN(CC(N)=O)CC1 (stereo not drawn)
  CBX7 inh: 0.385*
  CBX7 inh z-score: -1.72*

#2 COc1ccccc1-n1c(/C=C/c2ccc(Cl)cc2)nc2ccccc2c1=O
  CBX7 inh: 0.923
  CBX7 inh z-score: -1.87

#3 Cc1cccc(-n2ncc3c(N4CC5CC(C4)c4cccc(=O)n4C5)ncnc32)c1 (stereo not drawn)
  CBX7 inh: 1.11
  CBX7 inh z-score: 1.69

#4 Cc1ccc(-n2c(-c3ccccn3)nc3ccccc3c2=O)cc1
  CBX7 inh: 1.08
  CBX7 inh z-score: 1.85

#5 O=C(c1ccc2c(c1)ncn2-c1ccc(F)cc1F)N1CCC2(CC1)OCCO2
  CBX7 inh: 1.01
  CBX7 inh z-score: 0.121

#6 CSc1cccc(NC(=O)CN2C(=O)C(C)N=C(c3ccccc3)c3ccccc32)c1 (stereo not drawn)
  CBX7 inh: 0.821
  CBX7 inh z-score: -3.33

#7 CCc1nc2ccccc2c(=O)n1-c1ccc2ccccc2c1
  CBX7 inh: 0.783
  CBX7 inh z-score: -0.856

#8 CCCCc1nc2ccccc2c(=O)n1-c1cccc(OC)c1
  CBX7 inh: 1.02
  CBX7 inh z-score: 0.464

#9 O=C(c1ccccc1Cl)c1cc(Cl)ccc1NC(=O)C12CC3CC(CC(C3)C1)C2
  CBX7 inh: 0.891
  CBX7 inh z-score: -2.32

#10 COc1ccc(C2NCc3ccccc3-n3cccc32)cc1 (stereo not drawn)
  CBX7 inh: 0.995
  CBX7 inh z-score: -0.266

Single entries from the list.
Value of `CCc1nc2ccccc2c(=O)n1-c1ccc2ccccc2c1` under CBX7 inh: 0.783
Value of `O=C(c1ccccc1Cl)c1cc(Cl)ccc1NC(=O)C12CC3CC(CC(C3)C1)C2` under CBX7 inh z-score: -2.32
Value of `O=C(c1ccc2c(c1)ncn2-c1ccc(F)cc1F)N1CCC2(CC1)OCCO2` under CBX7 inh: 1.01

Additional records follow:
#11 Cc1c(C(=O)N2CCC3(CC2)OCCO3)oc2ccc(S(=O)(=O)N3CCC(C)CC3)cc12
  CBX7 inh: 1.25
  CBX7 inh z-score: 2.48

#12 CN1CC=C(c2noc(CCC(=O)Nc3nc4ccccc4s3)n2)CC1
  CBX7 inh: 1.01
  CBX7 inh z-score: 0.536

#13 Cc1c(Cl)cccc1NC(=O)CN1CC(c2ccccc2)CC1=O (stereo not drawn)
  CBX7 inh: 0.929
  CBX7 inh z-score: -1.64

#14 CCOC(=O)c1c(C)n(Cc2ccc3c(c2)OCO3)c2ccc(O)cc12
  CBX7 inh: 0.907
  CBX7 inh z-score: -1.47

#15 COc1ccc(/C=C/c2nc3ccccc3c(=O)n2-c2ccc(C)cc2Br)cc1
  CBX7 inh: 1.31
  CBX7 inh z-score: 0.313

#16 CC1N=C(c2ccccc2F)c2cc(Cl)ccc2N(CC(=O)Nc2ccc(C(C)C)cc2)C1=O (stereo not drawn)
  CBX7 inh: 0.891
  CBX7 inh z-score: -1.75

#17 CC(=O)OC1N=C(c2ccccc2)c2cc(C)ccc2NC1=O (stereo not drawn)
  CBX7 inh: 1.01
  CBX7 inh z-score: 0.355

#18 Cc1ccccc1-n1c(/C=C/c2ccc(O)cc2)nc2ccccc2c1=O
  CBX7 inh: 1.05
  CBX7 inh z-score: 1.28

#19 CC(=O)N1CC(=O)Nc2ccc(Cl)cc2C1c1ccc(F)cc1 (stereo not drawn)
  CBX7 inh: 0.996
  CBX7 inh z-score: -0.108

#20 OC(c1ccccc1)(c1ccccn1)c1ccccc1Cl (stereo not drawn)
  CBX7 inh: 1
  CBX7 inh z-score: 0.0512

#21 COc1ccc(S(=O)(=O)N2CC3CC(C2)c2cccc(=O)n2C3)cc1 (stereo not drawn)
  CBX7 inh: 1.06
  CBX7 inh z-score: 2

#22 CC1N=C(c2ccccc2)c2cc(Cl)ccc2N(CC(=O)Nc2ccc(C(C)C)cc2)C1=O (stereo not drawn)
  CBX7 inh: 0.749
  CBX7 inh z-score: -3.61

#23 COc1ccc(NC(=O)CN2C(=O)C(C)N=C(c3ccccc3)c3ccccc32)cc1OC (stereo not drawn)
  CBX7 inh: 1.2
  CBX7 inh z-score: 1.48

#24 CC1N=C(c2ccccc2)c2cc(Cl)ccc2N(CC(=O)Nc2ccc(N(C)C)cc2)C1=O (stereo not drawn)
  CBX7 inh: 0.515
  CBX7 inh z-score: -13.5

#25 CCc1ccccc1NC(=O)CN1C(=O)CN=C(c2ccccc2)c2cc(Cl)ccc21
  CBX7 inh: 1.04
  CBX7 inh z-score: 0.275

#26 COc1ccc(-n2c(/C=C/c3cccc(F)c3)nc3ccccc3c2=O)cc1Cl
  CBX7 inh: 0.971
  CBX7 inh z-score: -0.444

#27 Fc1cccc(C2NCc3ccccc3-n3cccc32)c1 (stereo not drawn)
  CBX7 inh: 0.941
  CBX7 inh z-score: -3.05

#28 Cc1ccc(-n2c(/C=C/c3cccc(F)c3)nc3ccccc3c2=O)cc1C
  CBX7 inh: 0.971
  CBX7 inh z-score: -0.801

#29 Cc1ccc(NC(=O)CN2CC(c3ccccc3)CC2=O)cc1C (stereo not drawn)
  CBX7 inh: 1.07
  CBX7 inh z-score: 1.36

#30 C=C[C@H]1CN2CC[C@H]1C[C@H]2[C@H](O)c1ccnc2ccccc12
  CBX7 inh: 1.11
  CBX7 inh z-score: 0.318

Going on with the list.
Each structure is followed by: CBX7 inh | CBX7 inh z-score
31: CN1C(=O)CC(c2ccccc2)Nc2ccccc21 (stereo not drawn)
    0.821 | -3.33
32: O=c1c2ccccc2nc(/C=C\c2ccc(F)c(F)c2)n1-c1ccc(Cl)cc1
    1.01 | 0.355
33: Cc1nn(-c2ccccc2)c2c1C(c1ccc3c(c1)OCO3)SCC(=O)N2 (stereo not drawn)
    0.871 | -0.361
34: CC(=O)n1nc(-c2nonc2C)c2nonc21
    0.95 | -0.6
35: O=C1CSC(c2ccccc2)c2c(n(C3CCCC3)[nH]c2=O)N1 (stereo not drawn)
    1.05 | 1.09
36: CC(Cc1ccccc1)NCC(=O)Nc1cc(N(C)C)nc2ccccc12 (stereo not drawn)
    1.05 | 1.5
37: CCC(C)C1N=C(c2ccccc2)c2cc(Cl)ccc2N(CC(=O)O)C1=O (stereo not drawn)
    1.09 | 0.936
38: CN1C2CCC1CC(NCCc1ccccc1)C2 (stereo not drawn)
    0.999 | -0.0317
39: COC(=O)c1[nH]cnc1C(=O)Nc1ccc(Br)cc1C(=O)c1ccccc1
    0.989 | -0.407
40: Cc1nc2ccccc2c(=O)n1-c1cccc(O)c1
    1.04 | 0.366

Going on with the list:
Each structure is followed by: CBX7 inh | CBX7 inh z-score
41: COc1ccc(NC(=O)CN2C(=O)CN=C(c3ccccc3)c3ccccc32)cc1OC
    0.955 | -0.648
42: CCOC(=O)C1(c2ccccc2)CCN(CC(=O)Nc2ccc(OC(F)(F)F)cc2)CC1
    1.52 | 4.99
43: CCC(CC)CNCCc1c(C)[nH]c2ccc(OC(F)(F)F)cc12
    0.919 | -4.22
44: O=C(Nc1ccc(Br)cc1C(=O)c1ccccc1)c1cccs1
    0.826 | -0.303
45: Cc1nn(-c2ccccc2)c2c1C(c1ccc(Cl)cc1)SCC(=O)N2 (stereo not drawn)
    1.05 | 1.53
46: Cc1ccc(-n2c(/C=C/c3ccc(F)c(F)c3)nc3ccccc3c2=O)cc1
    1.01 | 0.191
47: Cc1ccc(CN2C(=O)C(C)N=C(c3ccccc3)c3cc(Cl)ccc32)cc1 (stereo not drawn)
    0.988 | -0.333
48: Cc1ccc(C)c(CN2C(=O)CN=C(c3ccccc3)c3cc(Cl)ccc32)c1
    0.911 | -1.82
49: Cc1ccc2c(c1)[C@@H]1CN(C)CC[C@H]1N2C(=O)c1ccc(F)cc1
    1.01 | 0.13
50: CNC1(c2nnnn2-c2cccc(C(F)(F)F)c2)CCC(C(C)(C)C)CC1 (stereo not drawn)
    1.06 | 2.96

Remaining list, next part:
Each structure is followed by: CBX7 inh | CBX7 inh z-score
51: Cc1c(CCN)c2cccc3c2n1CCC3
    1.05 | 0.862
52: C1=C(c2c[nH]c3ccccc23)CCN(Cc2ccccc2)C1
    0.954 | -0.505
53: Cc1cc(C)cc(NC(=O)CN2CC(c3ccccc3)CC2=O)c1 (stereo not drawn)
    1.03 | 0.78
54: COc1ccc(-c2nc3ncccn3c2NC2CCCCC2)cc1
    0.92 | -2.15
55: Cc1ccc2nc(N3CCC(C(=O)N4CCC5(CC4)OCCO5)CC3)sc2c1
    1.02 | 0.706
56: CCN(CC)C(=O)c1ccc(NC(=O)Cn2nc(C)c3ccccc3c2=O)cc1
    1.01 | 0.061
57: COc1ccc2c(c1OC)CCCC2CCN1CC=C(c2ccc(Cl)cc2)CC1 (stereo not drawn)
    0.782 | -4.32
58: O=C(NC1CCCCC1)N1CCC2(CC1)OCCO2
    1.06 | 2.91
59: O=C1CN=C(c2ccccc2)c2cc(Cl)ccc2N1Cc1ccc(F)cc1Cl
    1.02 | 0.767
60: O=c1cccc2n1CC1CC2CN(S(=O)(=O)c2ccc3ccccc3c2)C1 (stereo not drawn)
    1.05 | 0.663

Next section.
Each structure is followed by: CBX7 inh | CBX7 inh z-score
61: Cc1ccc(-n2c(/C=C/c3cccc(O)c3)nc3ccccc3c2=O)cc1C
    1.09 | 1.43
62: CCOc1ccc(NC(=O)CN2C(=O)CN=C(c3ccccc3)c3cc(Cl)ccc32)cc1
    1.03 | 0.251
63: O=C1c2ccccc2C(=O)N1Cc1nc2ccccc2c(=O)n1-c1ccncc1
    1.11 | 1.12
64: COc1cccc(CN2CCN(Cc3ccccc3Cl)CC2)c1
    0.669 | -3.98

Compounds listed so far that contain a carbonyl joined to an NH by a bond outside any ring (20):
Each structure is followed by: CBX7 inh | CBX7 inh z-score
1: CCCCCC(C)C(C)c1cc(OC)c2c(c1)OC(C)(C)C1=C2CN(CC(N)=O)CC1 (stereo not drawn)
    0.385* | -1.72*
6: CSc1cccc(NC(=O)CN2C(=O)C(C)N=C(c3ccccc3)c3ccccc32)c1 (stereo not drawn)
    0.821 | -3.33
9: O=C(c1ccccc1Cl)c1cc(Cl)ccc1NC(=O)C12CC3CC(CC(C3)C1)C2
    0.891 | -2.32
12: CN1CC=C(c2noc(CCC(=O)Nc3nc4ccccc4s3)n2)CC1
    1.01 | 0.536
13: Cc1c(Cl)cccc1NC(=O)CN1CC(c2ccccc2)CC1=O (stereo not drawn)
    0.929 | -1.64
16: CC1N=C(c2ccccc2F)c2cc(Cl)ccc2N(CC(=O)Nc2ccc(C(C)C)cc2)C1=O (stereo not drawn)
    0.891 | -1.75
22: CC1N=C(c2ccccc2)c2cc(Cl)ccc2N(CC(=O)Nc2ccc(C(C)C)cc2)C1=O (stereo not drawn)
    0.749 | -3.61
23: COc1ccc(NC(=O)CN2C(=O)C(C)N=C(c3ccccc3)c3ccccc32)cc1OC (stereo not drawn)
    1.2 | 1.48
24: CC1N=C(c2ccccc2)c2cc(Cl)ccc2N(CC(=O)Nc2ccc(N(C)C)cc2)C1=O (stereo not drawn)
    0.515 | -13.5
25: CCc1ccccc1NC(=O)CN1C(=O)CN=C(c2ccccc2)c2cc(Cl)ccc21
    1.04 | 0.275
29: Cc1ccc(NC(=O)CN2CC(c3ccccc3)CC2=O)cc1C (stereo not drawn)
    1.07 | 1.36
36: CC(Cc1ccccc1)NCC(=O)Nc1cc(N(C)C)nc2ccccc12 (stereo not drawn)
    1.05 | 1.5
39: COC(=O)c1[nH]cnc1C(=O)Nc1ccc(Br)cc1C(=O)c1ccccc1
    0.989 | -0.407
41: COc1ccc(NC(=O)CN2C(=O)CN=C(c3ccccc3)c3ccccc32)cc1OC
    0.955 | -0.648
42: CCOC(=O)C1(c2ccccc2)CCN(CC(=O)Nc2ccc(OC(F)(F)F)cc2)CC1
    1.52 | 4.99
44: O=C(Nc1ccc(Br)cc1C(=O)c1ccccc1)c1cccs1
    0.826 | -0.303
53: Cc1cc(C)cc(NC(=O)CN2CC(c3ccccc3)CC2=O)c1 (stereo not drawn)
    1.03 | 0.78
56: CCN(CC)C(=O)c1ccc(NC(=O)Cn2nc(C)c3ccccc3c2=O)cc1
    1.01 | 0.061
58: O=C(NC1CCCCC1)N1CCC2(CC1)OCCO2
    1.06 | 2.91
62: CCOc1ccc(NC(=O)CN2C(=O)CN=C(c3ccccc3)c3cc(Cl)ccc32)cc1
    1.03 | 0.251
